CtBP-E1A blk = blocks the CtBP interaction with E1A; 0.49% of 340,000 active; activity change, % (concentration not given with the values); AID 651724; AlphaScreen GST-E1A/His-CtBP binding, 1536-well; hits give low values; control for the full effect not named in the record; in the data active means activity change below about -65%; inconclusive means about -30% to -65%; inactive means above about -30%; also: % is scaled to controls: 0 for no effect and ±100 for the full control effect
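Steps: dispense buffer (Tris pH 8.0, NaCl 300 mM, TCEP 1 mM, BSA, Tween 20); add 5X protein mix (GST-E1A, His-CtBP, 125 nM each); pin 23 nL compound; 2 h at 37 °C, dark; add 5X beads (50 ug/mL); 1 h; read.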
PINK1 modulator = PINK1 expression modulation; PINK1 immunofluorescence, high-content cytometry, 24 h; Potency, µM (top dose mostly 76.6 µM), without a hit: top-dose activation (PINK1 increase), actives largely listed as activators; 0.2% of 410,000 active; active = well fitted activation curve with a large enough effect; inconclusive = small, poorly fitted or top-dose-only effect; inactive = flat fitted curve, though single readings scatter; cell line not stated here;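 also: potency is read from the fitted curve at half-maximal effect; % of control where 0% means no effect; nearly all actives have a fitted effect of over 65% in size; a mitochondrial uncoupler was the plate control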
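Compound titrations (5 concentrations, 24 h) on a stable cell line; DMSO and CCCP controls. Endpoint: fixed-cell PINK1 immunofluorescence with mitochondrial, cell and nuclear markers, scanned by microplate cytometer.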
TRPML1 agonist = human mucolipin-1 channel agonism; AID 624414; 0.12% of 410,000 active; activation, % (test concentration not listed); TRPML1-expressing cells, Ca2+ dye fluorescence, FDSS; host cell line not named in the record; reference of the full effect not given here; in the data active = activation above about 50%; inconclusive = about 30% to 50%; inactive = below about 30%; also: 0% is about no effect; the text of the record puts the active cut at 80%
Target sequence (Q9GZU1 whole entry, looked up): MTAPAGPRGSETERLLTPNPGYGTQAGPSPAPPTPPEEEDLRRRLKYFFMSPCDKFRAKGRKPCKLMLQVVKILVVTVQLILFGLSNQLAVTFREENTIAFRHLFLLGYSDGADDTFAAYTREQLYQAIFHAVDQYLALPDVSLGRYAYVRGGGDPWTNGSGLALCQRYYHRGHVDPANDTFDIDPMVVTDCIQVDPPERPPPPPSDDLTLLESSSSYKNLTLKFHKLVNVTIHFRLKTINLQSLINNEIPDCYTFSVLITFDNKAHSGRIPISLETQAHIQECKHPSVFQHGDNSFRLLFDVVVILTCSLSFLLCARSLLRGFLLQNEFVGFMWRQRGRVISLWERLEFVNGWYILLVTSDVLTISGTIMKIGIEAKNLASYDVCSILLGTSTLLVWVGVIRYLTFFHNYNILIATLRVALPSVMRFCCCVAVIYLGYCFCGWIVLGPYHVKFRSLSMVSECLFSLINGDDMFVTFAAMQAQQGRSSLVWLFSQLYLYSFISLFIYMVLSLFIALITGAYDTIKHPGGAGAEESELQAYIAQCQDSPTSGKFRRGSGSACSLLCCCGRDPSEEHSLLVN
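Agonist activity was taken from a 110 s kinetic Ca2+ dye read on the FDSS after pinning compounds onto TRPML1-DL cells. The cells were seeded at 1,500/well with Tet inducer, incubated about 16 h, then dye-loaded at room temperature.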
Six1-Eya2 blk = blocks human Six1 binding to Eya2. Q15475+O00167. AlphaScreen GST-Six1/His-Eya2 binding, biochemical; hits give low values; control for the full effect not named in the record. activity change, % (no concentration beside the values). 0.56% of 360,000 active. AID 651725; in the data active = activity change below about -65%; inconclusive = about -30% to -65%; inactive = above about -30%; also: % is scaled to controls: 0 for no effect and ±100 for the full control effect; compound concentration not given in the record
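Six1/Eya2 binding was read as AlphaScreen signal after compounds were pinned into GST-Six1 plus His-tagged Eya2 (5X stock 250/500 nM) in pH 8.0 Tris/NaCl/TCEP buffer, beads added, then incubated 1 h, 37 C, dark.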
An asterisk follows results filed as active.

For Cc1ccc(OCC(=O)Nc2ccc(Cl)cc2C(=O)c2ccccc2)cc1C the results were PINK1 modulator 3.8% and TRPML1 agonist -0.4.
Screening COc1ccc(NC(=O)CN2C(=O)C(C)N=C(c3ccccc3)c3ccccc32)cc1OC (stereo unspecified) returned PINK1 modulator 4.1% and TRPML1 agonist 2.7.
Screening O=C(Nc1ccc2c(c1)OCCO2)c1cccn(Cc2cccc(F)c2)c1=O returned PINK1 modulator -1.0% and TRPML1 agonist -0.1.
Screening Nc1c(C(=O)Nc2ccc(Br)cc2F)sc2nc3c(cc12)N1CCC3CC1 returned PINK1 modulator -0.8% and TRPML1 agonist 1.7.
For CCCc1nc(SC)ncc1C(=O)Nc1ccc(Cl)cc1C(=O)c1ccccc1 the results were PINK1 modulator 4.2% and TRPML1 agonist 3.0.
CCOc1ccc(CN(CCc2ccc3c(c2)OCO3)Cc2cccc(C)c2)cc1 was read as PINK1 modulator 0.4% and TRPML1 agonist 1.9.
For Cc1cccc(C)c1OCC(=O)Nc1ccc(Cl)cc1C(=O)c1ccccc1 the results were PINK1 modulator 1.2% and TRPML1 agonist 2.0.
`COc1ccc(OC)c(NC(=O)Cn2cc(C(=O)c3ccccc3)c3ccccc32)c1` gave PINK1 modulator 0.5% and TRPML1 agonist 1.2.
CCN(CC)C(=O)c1ccc(NC(=O)Cn2nc(-c3ccc(C)cc3)c3ccccc3c2=O)cc1 was read as PINK1 modulator 1.4% and TRPML1 agonist -0.8.
For Cc1ccc(-n2c(/C=C/c3cccc(C(F)(F)F)c3)nc3ccccc3c2=O)cc1 the results were PINK1 modulator 0.6% and TRPML1 agonist 1.5.
For Cc1ccc(Cn2cccc(C(=O)Nc3ccc4c(c3)OCO4)c2=O)cc1 the results were PINK1 modulator 5.4% and TRPML1 agonist -0.9.
Screening Cc1cc(-n2c(/C=C/c3cccs3)nc3ccccc3c2=O)ccc1Br returned PINK1 modulator 0.1% and TRPML1 agonist 2.8.
`CCOc1ccc(CN(CCc2ccc3c(c2)OCO3)Cc2cccc(Br)c2)cc1` gave PINK1 modulator 3.0% and TRPML1 agonist 0.6.
For ClCCN(CCCl)c1ccc(C=Nc2ccncc2)cc1 the results were PINK1 modulator -0.1% and TRPML1 agonist 4.3.
For Cc1ccc(-c2nc(CN3C(=O)CN=C(c4ccccc4)c4ccccc43)c(C)o2)cc1 the results were PINK1 modulator -1.1% and TRPML1 agonist -0.8.
For CCOC(=O)c1ccc(NC(=O)c2sc3nc4c(cc3c2N)N2CCC4CC2)cc1 the results were PINK1 modulator -2.8% and TRPML1 agonist 0.5.
`Nc1c(C(=O)Nc2ccc(Cl)cc2)sc2nc3c(cc12)N1CCC3CC1` gave PINK1 modulator 5.5% and TRPML1 agonist 1.4.
Screening CC[C@@]1(O)C(=O)OCc2c1cc1n(c2=O)Cc2cc3ccccc3nc2-1 returned PINK1 modulator -1.1% and TRPML1 agonist -0.7.
`CN[C@@H](C)[C@H](O)c1ccccc1` gave PINK1 modulator 1.2% and TRPML1 agonist -0.2.
Screening COC(=O)C[C@H]1CC[C@H]2NC[C@@H](O)COC[C@@H]2O1 returned CtBP-E1A blk -7 and Six1-Eya2 blk 5.
For CC[C@@H]1c2ccccc2[C@@H]2CC[C@H]1N2c1ccccc1 the results were CtBP-E1A blk -3 and Six1-Eya2 blk -27.

Molecules above that have a halogen, in the order listed:
For Cc1ccc(OCC(=O)Nc2ccc(Cl)cc2C(=O)c2ccccc2)cc1C the results were PINK1 modulator 3.8% and TRPML1 agonist -0.4.
Screening O=C(Nc1ccc2c(c1)OCCO2)c1cccn(Cc2cccc(F)c2)c1=O returned PINK1 modulator -1.0% and TRPML1 agonist -0.1.
Screening Nc1c(C(=O)Nc2ccc(Br)cc2F)sc2nc3c(cc12)N1CCC3CC1 returned PINK1 modulator -0.8% and TRPML1 agonist 1.7.
For CCCc1nc(SC)ncc1C(=O)Nc1ccc(Cl)cc1C(=O)c1ccccc1 the results were PINK1 modulator 4.2% and TRPML1 agonist 3.0.
For Cc1cccc(C)c1OCC(=O)Nc1ccc(Cl)cc1C(=O)c1ccccc1 the results were PINK1 modulator 1.2% and TRPML1 agonist 2.0.
For Cc1ccc(-n2c(/C=C/c3cccc(C(F)(F)F)c3)nc3ccccc3c2=O)cc1 the results were PINK1 modulator 0.6% and TRPML1 agonist 1.5.
Screening Cc1cc(-n2c(/C=C/c3cccs3)nc3ccccc3c2=O)ccc1Br returned PINK1 modulator 0.1% and TRPML1 agonist 2.8.
`CCOc1ccc(CN(CCc2ccc3c(c2)OCO3)Cc2cccc(Br)c2)cc1` gave PINK1 modulator 3.0% and TRPML1 agonist 0.6.
For ClCCN(CCCl)c1ccc(C=Nc2ccncc2)cc1 the results were PINK1 modulator -0.1% and TRPML1 agonist 4.3.
`Nc1c(C(=O)Nc2ccc(Cl)cc2)sc2nc3c(cc12)N1CCC3CC1` gave PINK1 modulator 5.5% and TRPML1 agonist 1.4.

Source: PubChem (National Center for Advancing Translational Sciences (NCATS))

These rows are one share of the data. The share of hits here may be higher or lower than overall.
